Assay outcomes as filed in PubChem.
HPGD inh = qHTS Assay for Inhibitors of HPGD (15-Hydroxyprostaglandin Dehydrogenase) | purified HPGD, NADH fluorescence kinetic, PGE2 substrate | Potency, µM, without a hit: at the highest dose activity change, negative = inhibition, most hits filed as inhibitors | 150,000 tested, 4.3% active | AID 894, 2007; active = well fitted inhibition curve with a large enough effect (not every such curve was filed as active); inconclusive = small, poorly fitted or top-dose-only effect, or another doubt; inactive = no such curve, though single readings can be large or run the other way;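 note: top concentration of the series not given in the record; plate controls included wells without enzyme; inactives centre near -10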
Target sequence (P15428 whole entry, looked up): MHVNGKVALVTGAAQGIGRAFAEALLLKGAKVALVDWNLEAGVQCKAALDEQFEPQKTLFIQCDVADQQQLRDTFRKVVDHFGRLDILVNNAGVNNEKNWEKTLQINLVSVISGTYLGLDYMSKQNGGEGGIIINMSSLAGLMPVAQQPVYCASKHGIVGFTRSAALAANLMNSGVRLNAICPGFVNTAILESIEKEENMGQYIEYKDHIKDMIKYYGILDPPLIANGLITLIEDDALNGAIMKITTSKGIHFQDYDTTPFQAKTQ
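20 nM HPGD preincubated 15 min at room temperature with compound in 50 mM Tris-HCl pH 8, 0.01% Tween 20. Started with 1 mM NAD+ and 30 uM prostaglandin E2; NADH fluorescence (360/450 nm) read 5 times over 30-s intervals, last minus first.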
* = called active by the depositor; ? = inconclusive; & = joins results of further samples. % is set by controls: 0 for no effect and ±100 for the full control effect; potency is the fitted concentration of half-maximal effect.

HPGD inh	smiles
-5%	C=CCn1c(=O)c(C(=O)Nc2cccnc2)c(O)c2ccccc21
-11%	COC(=O)c1c(NS(=O)(=O)c2cccs2)sc2c1CCCC2
-3%	CC1SC(C)C(=O)N(CC(=O)NCc2ccc(F)cc2)C1=O (centres undefined)
-8%	CCCCN1c2ccccc2N(CCCO)c2cc(C)nnc21
?	Cc1c(NC(C)c2cc(Cl)ccc2O)c(=O)n(-c2ccccc2)n1C (centres undefined)
-6%&0%	COc1cc2c(cc1OC)C(=O)Cc1ccc3c(c1CN(C)CC2)OCO3
-16%	CCOC(=O)/C(=C\Nc1ccc(OC(F)(F)F)cc1)Sc1ncc(C(F)(F)F)cc1Cl
-6%	N#Cc1ccc(NC(=O)C2CC(c3ccc(F)cc3)=NO2)cc1 (centres undefined)
-2%	O=C(NC1CCN(C(=O)N2CCOCC2)CC1)c1ccccc1
-7%	COc1ccccc1N1CCSC1C(N)=O (centres undefined)
-7%	CC(C)C(=O)N1CCN(c2ccccc2N)CC1
-13%	CCN1C(=O)C(CC(=O)Nc2cccc(C(C)=O)c2)S/C1=N\c1ccccn1 (centres undefined)
-11%	COc1ccc(NC(=O)NC2(C(=O)N3CCCCCC3)CCCCC2)cc1
-11%	O=C(NC1CCCC1)C(c1ccc(N2CCOCC2)cc1)N(Cc1ccccc1)C(=O)c1ccco1 (centres undefined)
-3%	O=c1c2c3c(sc2n2cnnc2n1C1CCCCC1)CCC3
-7%	Cc1cccc(-n2c(SCC(=O)NCc3ccco3)nc3ccccc3c2=O)c1
-17%	Cc1[nH]c2ccccc2c1/C=N/Nc1ccc([N+](=O)[O-])cc1S(=O)(=O)Nc1ccc(Cl)cc1
1.4µM*	CCOC(=O)Cc1csc(-n2sc3ccccc3c2=O)n1
-7%	CCN(CC(=O)Nc1ccc(OC)c(OC)c1)S(=O)(=O)c1ccc(C)cc1
?	c1csc(-c2ccnc3ncnn23)c1

The listing continues.
HPGD inh	smiles
-4%	CC1CN(Cc2nc3c(c(=O)n(C)c(=O)n3C)n2CC(O)CO)CC(C)O1 (centres undefined)
-7%	CCOc1ccc(CNC(=O)CCc2cn(Cc3ccccc3)c3ccccc23)cc1
-25%	Cc1ccc(C2CC2C(=O)NNC(=S)Nc2cccc(C)c2)cc1 (centres undefined)
-24%	O=C1CCCCCN1CSc1nc2ccccc2s1
-25%	CCCn1c(CC)nc([N+](=O)[O-])c1Sc1ccc(C)cc1
-15%	Cn1nnnc1SCc1nnc(-c2ccc(Cl)cc2)o1
-8%	COc1cc(C(C)=O)ccc1COc1ccc(C(=O)OCC(=O)NC(C)(C)C)cc1OC
3%	CCOC(=O)C1CCCN(S(=O)(=O)c2cc(OCC(N)=O)c(C)cc2Cl)C1 (centres undefined)
-22%	Cn1c(C(=O)N2CCN(C(=O)c3ccco3)CC2)cc2c(=O)n(C)c3ccccc3c21
-2%	Cc1cc(-c2csc(NC(=O)c3ccc(C#N)cc3)n2)c(C)n1Cc1ccco1
18µM*	Cc1ccsc1C1Nc2ccccc2C(=O)N1O (centres undefined)
-7%	COC(=O)Cn1c(CN(Cc2ccccc2)Cc2ccccc2)nc2c1c(=O)[nH]c(=O)n2C
-6%	c1cncc(CNc2nc(-c3ccoc3)nc3ccccc23)c1
?	O=C(Nc1nc(-c2cc3ccccc3o2)cs1)c1ccc(S(=O)(=O)N2CCCC2)cc1
-3%	CCCN1CCN(C(=O)c2ccc(Sc3ccc(C)cc3)c(NC(C)=O)c2)CC1
3%	COc1ccc(-n2c(C)cc(=O)c3c2CC(C)(C)CC3=O)cc1
-12%	Cc1cc(CCCCCCCCc2cc(C)cc(=O)o2)oc(=O)c1
-2%	O=C(O)C12CC3(C(=O)O)CC(C(=O)O)(CC(C(=O)O)(C1)C3=O)C2=O
-10%	Cn1c(=O)oc2cc(S(=O)(=O)Nc3ccc(Cl)cc3F)ccc21
-6%	Cc1[nH]n(-c2nc(-c3cccc([N+](=O)[O-])c3)cs2)c(=O)c1C

(continued)
HPGD inh	smiles
-29%	COC(=O)c1sc(N)c(C(=O)OC)c1COC(=O)[C@@H](NS(=O)(=O)c1cccc(Cl)c1)C(C)C
-12%	COc1ccc(N(CC(=O)NN=C2CCCCCCC2)S(=O)(=O)c2ccccc2)cc1Cl
-8%	O=C1c2ccccc2C(=O)N1CCc1nc2ccccc2c(=O)n1Cc1ccco1
-14%	Cc1ccc(Cn2nc(C)c(NC(=O)C3CC3)c2C)cc1
-5%	COc1ccc(C(=O)C[n+]2ccccc2/C=N/O)cc1
-12%	CCOC(=O)C1CCCN(S(=O)(=O)c2ccc(C)cc2)C1 (centres undefined)
?	Cn1c2ccc(F)cc2c2ncn(CCCN(CCO)CCO)c(=O)c21
-6%	CCN(CC)c1ccc(/C=c2\sc3nnc(-c4ccccc4Cl)n3c2=O)cc1
-11%	CCOc1ccccc1NC(=O)c1cc(S(=O)(=O)N2CCC3(CC2)OCCO3)ccc1F
-9%	O=C(Cc1cccc2ccccc12)N/N=C/c1ccc(F)cc1
-16%	Cc1cc[n+](-c2nc([O-])sc2/C=N/Nc2ccc([N+](=O)[O-])cc2)cc1
-20%	COc1cccc(CC(=S)N2CCOCC2)c1
-18%	Cc1ccc(NC(=S)NNC(=O)c2ccco2)cc1
?	COc1cc(NC(=O)c2ccc(Br)o2)c(C(=O)O)cc1OC
-1%	CC(C(=O)N1CC2(C)CC1CC(C)(C)C2)N1C(=O)c2ccccc2C1=O (centres undefined)
-17%	Cc1nn(C(=O)c2ccco2)c(C)c1Sc1ccc([N+](=O)[O-])cc1
-21%	O=C(O)c1ccc(CSc2nnnn2C2CCCCC2)cc1
?	Cc1cc(C)nc(SCC(=O)NC2=NC(=O)C(C)S2)n1 (centres undefined)
?	Clc1ccc(-c2ccc(/C=N/Nc3cc(N4CCOCC4)nc(N4CCOCC4)n3)o2)cc1
-11%	Cc1ccc(/C=C/C(=O)Nc2cc(=O)n(C)c(=O)n2C)o1

Further structures follow.
HPGD inh	smiles
-23%	Cc1cc(NC(=O)CSc2nc(-c3cccnc3)ccc2C#N)no1
-20%	COCCOC(=O)C1=C(C)NC(C)=C(C(=O)OC(C)C)[C@@H]1c1cccc([N+](=O)[O-])c1
-24%	Cc1cccc(/C(N)=N/OC(=O)CCCN2C(=O)c3ccccc3C2=O)c1
-6%	CCOC(=O)C1CCN(c2cc(=O)n(-c3ccccc3Cl)c(=O)[nH]2)CC1
-27%	Cc1ccc(NC(=O)N2CCC(C(=O)Nc3ccc(C)cc3C)CC2)cc1
-10%	O=C(NCc1ccc2c(c1)OCO2)c1cnc2n(c1=O)CCS2
-8%	CCn1c(Cc2ccccc2)nnc1SCC(=O)NC(C)(C)C
-3%	CCOc1ccc(NC(=O)c2cccc3c2C(=O)N(CCOC)C3)cc1
-10%	CCOCCCNCc1ccc(Cl)cc1
-4%	Cn1c(C2CCCN2C(=O)OC(C)(C)C)n[nH]c1=S (centres undefined)
1%	O=C(Nc1cccnc1)c1ccccc1-c1nc(-c2ccccc2F)no1
-9%	Cc1ccccc1C(=O)Nc1cc(S(=O)(=O)N2CCCCC2)ccc1N1CCN(C)CC1
-2%	CCCCCCCCCCCCCCCC[n+]1ccc(C(N)=O)cc1
-7%	NS(=O)(=O)c1cccn1-c1ncc(C(F)(F)F)cc1Cl
3%&5%	O=S(=O)(O)C1CCNCC1
?	COc1cc(COc2ccc3c(C)c(Cc4ccccc4)c(=O)oc3c2)cc(OC)c1OC
-4%	CSc1ccccc1NC(=O)CN(C)CC(=O)Nc1c(F)cccc1F
-5%&-9%	COC(=O)C1(C(=O)OC)C/C=C\C/C=C\c2ccccc2[C@@H]1C[N+](=O)[O-]
-14%	CC(=O)Nc1ccc(C(=O)CS(=O)(=O)c2ccc(C)cc2)cc1
1%	COc1ccc(OC)c(NC(=O)CCN2CC(C)OC(C)C2)c1 (centres undefined)

The listing continues.
HPGD inh	smiles
16µM*	COc1ccccc1CNC(=O)C1COc2ccccc2O1 (centres undefined)
-13%	CC(C)C(NC(=O)c1ccccc1)C(=O)NCc1ccccn1 (centres undefined)
-3%	CCC(=O)N1C(=O)CCN(C(C)=O)c2ccccc21
-20%	O=C(N1CCCCCC1)N1CCN(S(=O)(=O)N2CCOCC2)CC1
-12%	COCCCNC(=O)COc1ccc(Br)cc1Cl
-7%	O=C/C(=C\Nc1ccc(Cl)cn1)c1nc2ccccc2o1
?	CC1CCCc2sc3nc(NCc4ccco4)n4ncnc4c3c21 (centres undefined)
5%	Cc1cccc(C)c1NC(=O)C1(N(Cc2ccco2)C(=O)CC2NC(=O)NC2=O)CCCCC1 (centres undefined)
-14%	COc1ccc(N(CC(=O)Nc2ccc3c(c2)OCO3)S(=O)(=O)c2c(C)nn(C)c2C)cc1
-3%	O=c1[nH]c2cc3c(cc2cc1C(c1nnnn1Cc1ccccc1)N1CCCc2ccccc21)OCO3 (centres undefined)
-19%	CCOC(=O)N1CCC(NC(=O)c2cnn3cccnc23)CC1
-17%	CSc1ccccc1C(=O)NCCCOC(C)C
-13%	Cc1nc2ccccc2n1C1CCN(CC(=O)NCc2ccc(F)cc2)CC1
?	Cc1ccc2[nH]c3c(c2c1)CN(C(=O)CN1CCN(c2cccc(C)c2C)CC1)CC3
-20%	Cc1ccc(NC2=CC(=O)CC(c3ccc(Cl)cc3)C2)cc1 (centres undefined)
-4%	CC1(OC(=O)CCc2ccccc2)C(=O)C=C2C=C(c3ccc(C#N)cc3)OC=C2C1=O (centres undefined)
-12%	CC(C(=O)N1CCOCC1)N1C(=O)c2ccccc2C1=O (centres undefined)
-1%	CCN1C(=O)CSc2ccc(C(=O)NCc3ccco3)cc21
-21%	c1ccc2c(C3=NNC(=NC4CC4)SC3)c[nH]c2c1
?	COc1ccccc1NS(=O)(=O)c1cc(NC(=O)Nc2cccc(C)c2)ccc1N1CCCCC1

Some of these compounds in order of molecular weight, highest first:
HPGD inh	smiles
?	COc1ccccc1NS(=O)(=O)c1cc(NC(=O)Nc2cccc(C)c2)ccc1N1CCCCC1
-3%	O=c1[nH]c2cc3c(cc2cc1C(c1nnnn1Cc1ccccc1)N1CCCc2ccccc21)OCO3 (centres undefined)
-14%	COc1ccc(N(CC(=O)Nc2ccc3c(c2)OCO3)S(=O)(=O)c2c(C)nn(C)c2C)cc1
5%	Cc1cccc(C)c1NC(=O)C1(N(Cc2ccco2)C(=O)CC2NC(=O)NC2=O)CCCCC1 (centres undefined)
-13%	Cc1nc2ccccc2n1C1CCN(CC(=O)NCc2ccc(F)cc2)CC1
?	CC1CCCc2sc3nc(NCc4ccco4)n4ncnc4c3c21 (centres undefined)
-12%	COCCCNC(=O)COc1ccc(Br)cc1Cl
-19%	CCOC(=O)N1CCC(NC(=O)c2cnn3cccnc23)CC1
-1%	CCN1C(=O)CSc2ccc(C(=O)NCc3ccco3)cc21
-20%	Cc1ccc(NC2=CC(=O)CC(c3ccc(Cl)cc3)C2)cc1 (centres undefined)
-13%	CC(C)C(NC(=O)c1ccccc1)C(=O)NCc1ccccn1 (centres undefined)
16µM*	COc1ccccc1CNC(=O)C1COc2ccccc2O1 (centres undefined)
-12%	CC(C(=O)N1CCOCC1)N1C(=O)c2ccccc2C1=O (centres undefined)
-21%	c1ccc2c(C3=NNC(=NC4CC4)SC3)c[nH]c2c1
-17%	CSc1ccccc1C(=O)NCCCOC(C)C
-3%	CCC(=O)N1C(=O)CCN(C(C)=O)c2ccccc21

Additional structures:
HPGD inh	smiles
-10%	COc1ccccc1N1CCN(C(=O)c2ccc3nc[nH]c3c2)CC1
25µM*	COc1ccc(CC(=O)c2ccc(O)cc2O)cc1
-3%	Cc1ccc(OCCN2CCN(C(=O)CCC(=O)Nc3nnc(C(C)C)s3)CC2)cc1
-2%	CN(c1ccc(OCC(=O)OCC(=O)Nc2c(F)c(F)c(F)c(F)c2F)cc1)S(=O)(=O)c1ccc(F)cc1
-6%	CCOc1ccccc1C1CC(c2cccc(NS(C)(=O)=O)c2)=NN1C(=O)c1ccccc1 (centres undefined)
-8%	Cc1nnc(SCCC(=O)Nc2nc(-c3ccccc3)ns2)s1
-10%	Cc1cc(O)c(C(C)C)cc1NC(=O)Nc1cccc2ccccc12
?	COc1ccc2c(c1)c(=O)oc1cc(OCC(=O)NC3CC3)ccc12
?	N#CC1=C(S)N(c2ccccc2)C(c2ccc(-c3cc(Cl)ccc3Cl)o2)NC1=O (centres undefined)
16µM*	CCn1c(SCc2nc3sc(C(=O)O)c(C)c3c(=O)[nH]2)nc2ccccc21
1%	S=C(NC1CCCCC1)N1CCC([C@H]2C=NC=N2)CC1
-13%	COc1ccc(Nc2nc(N)nc(CN3CCOCC3)n2)cc1
-5%	O=C(CCN1C(=O)C2C3CC(C(Br)C3Br)C2C1=O)OCC(=O)c1ccccc1 (centres undefined)
-15%	Cc1[nH]c2ccccc2c(=O)c1SC(F)(F)C(F)C(F)(F)F (centres undefined)
-7%	O=C1CC(C(=O)Nc2nccs2)C(c2ccccc2)O1 (centres undefined)
?	COCCN(C(C)=O)c1nnc(-c2ccccn2)s1
-17%	Cc1cccc(C)c1NC(=O)CSc1cc(C(=O)c2nccn2C)c2ccccc2n1
?	COc1ccc(C2CC(=O)N3CN(c4ccc(C)c(Cl)c4)CSC3=C2C#N)cc1 (centres undefined)
-4%	NS(=O)(=O)c1ccc(NC(=O)CCc2ccccc2)cc1
-4%	COc1ccccc1C1=NOC(Cn2c(=O)c3c(ncn3C)n(C)c2=O)C1 (centres undefined)

Remaining list, next part:
HPGD inh	smiles
-3%	Cc1ccc(C)c(NC(=O)c2ccccc2NS(=O)(=O)c2cc([N+](=O)[O-])ccc2C)c1
-7%	Cc1cccc(Cn2cnc3ccccc32)c1
-15%	COc1ccc(N(C)S(=O)(=O)c2cccc(C(=O)NCC3CCCO3)c2)cc1 (centres undefined)
-4%	Cc1nn(Cc2ccccc2)c(C)c1CCC(=O)O

A portion of the library; rates above refer to the full screens.
